eIF4H inh: human eIF4H binding inhibitors, primary screen, translation initiation inhibitor project, biochemical, uHTS, fluorescence polarization | eIF4H fluorescence polarization binding assay | inhibition, % at 35 µM | 290,000 compounds, 0.94% hits | AID 2012, 2009;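 active means 50% or more with normal probe brightness, or confirmed in later tests; inconclusive means above 50% with abnormal brightness, or retests that disagree; inactive means below 50% or failed in later tests; about a fifth of its hits are not listed in these tables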;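 further: calls also rest on retests at 20 µM and on dose response follow-up; 0% = protein and probe with vehicle and 100% = probe without protein; strong numbers were not always called active; many hits fall short of the cut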
MT1-MMP act inh: blockers of MT1-MMP proenzyme processing, primary screen, HT1080 RFP-PRO-GFP cells, GFP/RFP fluorescence; 360,000 compounds, 0.061% hits; Matrix metalloproteinase-14 (Homo sapiens), P50281; GFP/RFP ratio fluorescence, overnight; percent of plate control window, DMSO zero; AID 651647, 2012; GFP/RFP ratio change, % at 20 µM;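 active means GFP/RFP ratio change of at least 30% with cell ATP level not reduced by more than half and red fluorescence within 50% of control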; further: strong numbers were not always called active
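Assay system: RFP-PRO-GFP reporter HT1080 cells; read-out basis: GFP/RFP fluorescence ratio; benchmarks: DMSO wells and RFP-L50D-GFP cells; doses: 20 µM single dose, 1% DMSO; schedule: overnight cell settling, then overnight compound exposure, 37 °C, 5% CO2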
Rce1 inh: yeast Rce1p protease inhibitors, primary screen, biochemical, fluorescence, cell-free homogeneous | 290,000 compounds, 0.27% hits | CAAX prenyl protease 2 (Saccharomyces cerevisiae (strain ATCC 204508 / S288c)), Q03530 | yeast membranes, quenched prenylated peptide cleavage fluorescence | calls only;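 active means fall in fluorescence gain of 50% or more versus controls, with final raw signal at or below 3038400; inconclusive means same 50% fall but final raw signal above 3038400; inactive means fall in fluorescence gain under 50%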;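 further: plate controls were neutral control wells for no effect and wells lacking membranes for full effect; tested at 10 µM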
Target sequence (Q03530 whole entry, looked up): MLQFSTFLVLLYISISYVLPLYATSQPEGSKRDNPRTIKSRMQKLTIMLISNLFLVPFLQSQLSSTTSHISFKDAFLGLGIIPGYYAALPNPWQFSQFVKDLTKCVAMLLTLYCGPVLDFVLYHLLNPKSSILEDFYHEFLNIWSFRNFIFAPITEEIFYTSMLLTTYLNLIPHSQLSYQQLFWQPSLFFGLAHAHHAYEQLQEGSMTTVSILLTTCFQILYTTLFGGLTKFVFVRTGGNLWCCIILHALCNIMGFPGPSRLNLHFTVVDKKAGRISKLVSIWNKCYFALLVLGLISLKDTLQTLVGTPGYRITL
HIV Env fusion: inhibitors of HIV-1 Env-driven cell-cell fusion, primary screen, HeLa-JRFL effector, CEM21 target cells, luciferase | inhibition, % at 12.3 µM | AID 651610, 2012 | 360,000 compounds, 1.1% hits;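 active means mean replicate inhibition score of at least 50 and every replicate individually at or above 50; inconclusive means only one of the two criteria met; inactive means mean below 50 and not all replicates reaching 50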;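 further: 0% = plate neutral controls and 100% = maraviroc near 300 nM; one replicate is shown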
UUG fidelity: modulators of yeast start codon fidelity, primary screen, whole organism, S. cerevisiae, single point, plate reader; 350,000 compounds, 0.13% hits; activity score, % at 18.7 µM; S. cerevisiae UUG-firefly luciferase reporter, luminescence/redox ratio;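 active means replicate mean at a twofold rise or more, about +100% in these data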;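 further: firefly luciferase made from a UUG start codon reports start codon fidelity; reporter light over untreated wells divided by growth signal over untreated wells; some hits fall short of that in this replicate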
CSC inhib: cancer stem cell viability inhibitors, primary screen, luminescence | cancer stem cell-like cells viability | inhibition, % at 7.5 µM | 300,000 compounds, 1.1% hits;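 active means mean at 75% or more and at least half the replicates too; inconclusive means mean and replicates disagree; tested in HMLE shEcad cells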;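 further: 0% = median of negative and 100% = median of positive control wells; the first replicate is given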
PABP polyA inh: PABP poly(A) RNA binding inhibitors, primary screen, biochemical, fluorescence polarization, uHTS. inhibition, % at 35 µM. Polyadenylate-binding protein 1 (Homo sapiens), P11940. 290,000 compounds, 1% hits. AID 2014, 2009;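 active means 50% or more with normal probe brightness, or confirmed in later tests; inconclusive means above 50% with abnormal brightness, or retests that disagree; inactive means below 50% or failed in later tests; about a fifth of its hits are not listed in these tables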;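 further: calls also rest on retests at 20 µM and on dose response follow-up; controls were probe without protein and protein plus probe with vehicle; some compounds called inactive have numbers as strong as hits; many hits fall short of the cut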
eIF4H inh retest: second read-out of eIF4H inh, no call of its own (marks repeat the call); inhibition, %; compound at 20 µM; confirmation average;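 mean of two retest wells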
PABP polyA inh retest: further read-out of PABP polyA inh, marked with its call; inhibition, %; compound at 20 µM; confirmation repeats;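 mean of two retest wells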
MT1-MMP act inh RFP: also measured in MT1-MMP act inh; calls as there; RFP signal change, %; measured here: RFP expression control read;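 0 = vehicle wells; hits needed this value within 50% of zero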
* = called active by the depositor; i = inactive; ? = inconclusive; . = no result given; & = joins results of further samples.

SMILES	eIF4H inh	MT1-MMP act inh	MT1-MMP act inh RFP	Rce1 inh	HIV Env fusion	UUG fidelity	CSC inhib	PABP polyA inh	others
COc1ccccc1NC(=S)NCC1CCCCC1	3	2	1	i	4	-32	-21	7
O=C(N/N=C/c1c(O)ccc2ccccc12)c1cccnc1	9	-22	-5	i	13	-23	?	2
COc1cccc(NC(=O)CN(C)S(=O)(=O)c2ccc(C)cc2)c1	6	2	-1	i	.	13	-6	-4
O=C(CSc1n[nH]c(=O)n1Cc1ccco1)N1CCOCC1	7	0	3	i	-13	-9	.	5
COc1cc(/C=C/CO)ccc1O[C@@H]1O[C@H](CO)[C@@H](O)[C@H](O)[C@H]1O	.	4	1	i	.	-8	-7	.
O=C1OCCN1C(=O)[C@H]1[C@H](c2ccc([N+](=O)[O-])cc2)C(c2ccc(F)cc2)=NN1c1ccccc1	.	0	-3	.	-24	-13	.	.
CC(C)Sc1nnc([C@H](Cc2c[nH]c3ccccc23)NC(=O)OC(C)(C)C)o1	-1	-2	-8	i	1	-7	-3	-8
CCOC(=O)C1=C(C)OC(N)=C(C#N)C1c1ccccc1 (stereo unspecified)	-6	-7	-3	i	-2	.	-11	3
Cc1cc(C)n(CC(=O)NNC(=O)CCCOc2ccc(Cl)c(C)c2)n1	2	2	-1	i	9	-21	-10	-6
O=C(NNC(=O)c1cccnc1)NC12CC3CC(CC(C3)C1)C2	5	-1	3	i	.	-21	-9	-2
CN(C)c1ccc(C(=O)C(O)c2ccc(C(C)(C)C)cc2)cc1 (stereo unspecified)	3	0	-17	i	40	-22	-4	1
CCC(C)C(NC(=O)C1CCC(=O)N1C(=O)OCc1ccccc1)C(=O)NC(C(=O)N1CCCC1C(N)=O)C(C)CC (stereo unspecified)	-3	3	5	i	-8	-5	.	6
Cc1cc(C)c(OCC(=O)N2CC=C(c3ccccc3)CC2)c(C)c1	2	-3	-3	i	-15	-12	.	2
CCN(c1ccc2c(c1)OCO2)S(=O)(=O)c1cc(Br)cc2c1N(C(=O)C1CC1)CC2	11	-10	-9	i	0	.	11	-1
CCOC(=O)C1CCN(c2c(N3CCN(Cc4ccccc4)CC3)c(=O)c2=O)CC1	-5	-1	1	i	10	-22	-14	-1
Cc1ccc(N(Cc2ccccc2)C(=O)c2cc(S(=O)(=O)N3CCOCC3)ccc2N2CCCC2)cc1	.	-4	-7	i	20	-22	.	.
Cc1ccc(-n2c(C)nn(CC3CC3)c2=O)cc1	-11	1	-1	i	-18	-15	-13	-4
Cc1ccc2c(c1)C(=O)CC(O)(C(F)(F)F)O2 (stereo unspecified)	1	-2	-4	i	4	-14	-15	2
Cc1ccccc1N1CC(C(=O)Nc2ccc(S(=O)(=O)NCC3CCCO3)cc2)CC1=O (stereo unspecified)	-16	-2	-2	i	-23	8	2	2
O=C1Nc2ccc(F)cc2C12SCCS2	7	-1	-1	i	.	.	2	-1
CCc1ccccc1NC(=O)CCNC(=O)Cn1ccc2ccccc2c1=O	-8	-2	-5	i	1	-1	.	1
CC1CCN(C(=O)C(C)NCc2ccc(F)cc2)CC1 (stereo unspecified)	6	-5	-3	.	-9	-5	0	11
Clc1cccc2sc(N3CCOCC3)nc12	.	2	6	i	-375	19	1	.
COc1ccc(OCCC(=O)OCC(=O)NCc2ccccc2)cc1	1	-7	7	i	-44	.	-4	28
COc1ccc(-c2c(C)nn3c(N)c(-c4ccccc4)cnc23)cc1OC	-5	-4	-2	i	-1	2	?	7
C=CCOc1ccc(/C=C/C(=O)OCC(=O)NCC(=O)Nc2c(C)cc(C)cc2C)cc1	.	0	-5	i	-3	.	-13	.
CCC(C(=O)Nc1ccc(C(=O)N2CCCC2)cc1)c1ccccc1 (stereo unspecified)	9	0	-3	i	-2	7	-5	0
O=C(O)COc1ccccc1/C=N/NC(=O)CN1CCN(S(=O)(=O)c2ccc(Br)cc2)CC1	7	0	4	i	13	-28	-2	-1
NC(=O)c1cc2cc(Cl)ccc2oc1=Nc1cccc(C(F)(F)F)c1	-8	4	2	i	12	-17	1	4
Cc1ccc(C(OC(=O)c2ccco2)C(=O)NC2CCCCC2)cc1 (stereo unspecified)	2	1	2	i	-32	-17	.	-3

12 structures from above, arranged by heavy-atom count, lowest first:
SMILES	eIF4H inh	MT1-MMP act inh	MT1-MMP act inh RFP	Rce1 inh	HIV Env fusion	UUG fidelity	CSC inhib	PABP polyA inh	others
O=C1Nc2ccc(F)cc2C12SCCS2	7	-1	-1	i	.	.	2	-1
Clc1cccc2sc(N3CCOCC3)nc12	.	2	6	i	-375	19	1	.
Cc1ccc2c(c1)C(=O)CC(O)(C(F)(F)F)O2 (stereo unspecified)	1	-2	-4	i	4	-14	-15	2
Cc1ccc(-n2c(C)nn(CC3CC3)c2=O)cc1	-11	1	-1	i	-18	-15	-13	-4
CC1CCN(C(=O)C(C)NCc2ccc(F)cc2)CC1 (stereo unspecified)	6	-5	-3	.	-9	-5	0	11
NC(=O)c1cc2cc(Cl)ccc2oc1=Nc1cccc(C(F)(F)F)c1	-8	4	2	i	12	-17	1	4
COc1ccc(-c2c(C)nn3c(N)c(-c4ccccc4)cnc23)cc1OC	-5	-4	-2	i	-1	2	?	7
CCc1ccccc1NC(=O)CCNC(=O)Cn1ccc2ccccc2c1=O	-8	-2	-5	i	1	-1	.	1
CCOC(=O)C1CCN(c2c(N3CCN(Cc4ccccc4)CC3)c(=O)c2=O)CC1	-5	-1	1	i	10	-22	-14	-1
C=CCOc1ccc(/C=C/C(=O)OCC(=O)NCC(=O)Nc2c(C)cc(C)cc2C)cc1	.	0	-5	i	-3	.	-13	.
O=C(O)COc1ccccc1/C=N/NC(=O)CN1CCN(S(=O)(=O)c2ccc(Br)cc2)CC1	7	0	4	i	13	-28	-2	-1
Cc1ccc(N(Cc2ccccc2)C(=O)c2cc(S(=O)(=O)N3CCOCC3)ccc2N2CCCC2)cc1	.	-4	-7	i	20	-22	.	.

(listing goes on)
SMILES	eIF4H inh	MT1-MMP act inh	MT1-MMP act inh RFP	Rce1 inh	HIV Env fusion	UUG fidelity	CSC inhib	PABP polyA inh	others
Cc1ccc(NC(=O)c2c(-c3ccccc3Cl)noc2C)nc1	4	-3	2	i	10	.	-14	9
O=C(Nc1cccc(-c2nc3ccccc3o2)c1)c1ccc(N2C(=O)C3C4C=CC(C4)C3C2=O)cc1 (stereo unspecified)	-1	1	-5	i	.	-27	-2	-3
Cc1c(C)c2ccc(OCC(=O)N3CCN(c4cccc(Cl)c4)CC3)cc2oc1=O	-11	0	0	i	19	-8	3	4
O=C(CNC(=O)C12CC3CC(CC(C3)C1)C2)N/N=C\c1ccccn1	-5	0	1	i	12	-22	4	-7
O=C(CNS(=O)(=O)c1ccccc1)NCC(=O)N1CCCCC1	-2	0	2	i	3	0	-2	-2
O=C(NCc1cccnc1)c1ccc(NC(=O)c2cccc([N+](=O)[O-])c2)cc1	0	-4	-5	i	14	-2	25	0
CN1CCN(S(=O)(=O)c2ccc(-c3ccc(Cl)cc3)cc2)CC1	-4	3	2	i	1	-16	3	-7
Cc1ccn2c(=S)[nH]nc2c1	.	1	3	.	-83	-17	.	.
COc1ccc(S(=O)(=O)NCc2nc3nc(C)cc(C)n3n2)cc1OC	-3	0	5	i	-6	-12	-4	-4
C=CCN(CC=C)C(=S)NC(=O)c1ccc(OC)c(Br)c1	3	6	-6	i	.	-25	20	-2

The last two entries of the part before open the next one:
SMILES	eIF4H inh	MT1-MMP act inh	MT1-MMP act inh RFP	Rce1 inh	HIV Env fusion	UUG fidelity	CSC inhib	PABP polyA inh	others
COc1ccc(S(=O)(=O)NCc2nc3nc(C)cc(C)n3n2)cc1OC	-3	0	5	i	-6	-12	-4	-4
C=CCN(CC=C)C(=S)NC(=O)c1ccc(OC)c(Br)c1	3	6	-6	i	.	-25	20	-2
COC(=O)c1cccc(NC(=O)Cc2ccsc2)c1	-6	-1	2	i	-13	-12	-5	-10
O=C(OCCN1CCOCC1)c1cccc(F)c1	-2	1	5	i	-31	-10	-6	8
CCc1ccc2oc(=O)cc(CN3CCN(CCO)CC3)c2c1	-6	6	4	i	29	-2	.	-2
CS(=O)(=O)c1ccc(N2CCN(C3CC(=O)NC3=O)CC2)cc1 (stereo unspecified)	24	-3	0	i	.	-7	-13	2
Cn1c(=O)c2c(nc(N3CCCCC3)n2C)n(C)c1=O	-12	1	-2	i	.	5	-1	4
CN(C)CCNc1c2c(c(C#N)c3nc4ccccc4n13)CCCC2	64	-2	4	i	13	14	-25	36	eIF4H inh retest=37;PABP polyA inh retest=19
Cc1ccc(CN(C)Cc2cc(=O)oc3cc(C)c(Cl)cc23)cc1	-3	-4	-3	i	12	-2	17	-3
CN(C1CCCCC1)S(=O)(=O)c1ccc(SCC(=O)C(C)(C)C)nc1	.	4	-8	.	.	15	51	.
COC(=O)c1sccc1NC(=O)Nc1ccc(C)cc1C	-6	2	-1	i	-6	-2	-5	-2
Cc1ccc(-c2csc(NC(=O)c3ccccc3Cl)c2C(=O)O)cc1	63	-1	-2	i	-15	-7	2	20	eIF4H inh retest=2;PABP polyA inh retest=9
CSC(SC)=C(C#N)C(=O)c1ccccc1	-11	7	4	i	-39	-5	71	9
CC(C)c1ccc(-c2nc3c([nH]2)c(=O)n(C)c(=O)n3C)cc1	-9	6	0	i	.	-8	9	-8
O=C(COc1ccc(NS(=O)(=O)c2ccc(F)cc2)cc1)N1CCOCC1	1	-2	1	i	3	.	.	1
NS(=O)(=O)c1ccc(CCNc2nc(C(F)(F)F)nc3ccccc23)cc1	-8	-1	-19	.	28	-12	-9	5
COc1ccc(-c2nc(-c3cccc(C(F)(F)F)c3)no2)cc1OC	6	7	4	i	-90	-10	12	-3
Cc1ccc(S(=O)(=O)N2CCN(S(=O)(=O)c3ccc(C)cc3)C2)cc1	2	2	5	i	38	-3	-9	-5
O=C(NCc1ccccc1)Nc1cccn(Cc2ccccc2Cl)c1=O	-7	-5	-25	.	18	.	-9	10
Cc1cccc(CSc2nc3ccncc3n2CC(=O)Nc2cc(C)cc(C)c2)c1	-5	5	-2	i	-59	17	5	8
CC12CCC(C(=O)N(c3ccc(Cl)cc3)C1=O)C2(C)C (stereo unspecified)	10	1	2	i	-15	-5	16	42
COc1ccc(CCN(C)C2CCCN(C(=O)c3ccnn3C)C2)cc1OC (stereo unspecified)	1	0	4	i	15	-16	-14	6
CC1=C(C(=O)OCc2ccccc2)C(c2ccc(N3CCOCC3)cc2)NC(=O)N1 (stereo unspecified)	-6	-1	-2	i	.	-12	.	-8
CC(=O)c1c(C)nc(Nc2nc(C)c3cc(C)ccc3n2)nc1C	-10	-4	-1	i	-9	.	-13	-4
CCC(CO)Oc1cc(NC(=O)c2cccc(OC)c2)c2ncn(C(C)C)c2c1 (stereo unspecified)	.	7	3	.	6	-3&-9	-23	.
